# gsp antag: antagonists of gsp mutant (McCune-Albright syndrome); gsp-mutant cells, cAMP HTRF, 30 min; control for the full effect not named in the record; Potency, µM (highest dose often 76.9 µM), for the others: at the top dose activity change, negative = inhibition, usual class: inhibitors; 340,000 compounds, 0.4% hits; AID 624288; active = falling curve of any shape with a large fitted effect; inconclusive = falling curve, mostly with a smaller effect; inactive = flat or rising curve; cell line not stated here;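 note: intracellular cAMP measured with PDE inhibitor Ro 20-1724 present during compound exposure; potency is the fitted concentration of half-maximal effect; % is set by controls: 0 for no effect and ±100 for the full control effect; nearly all actives have a fitted effect of over 65% in size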
#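 HTRF cAMP read-out (cAMP-d2 plus anti-cAMP antibody-K in lysis buffer, 30 min RT). Before lysis, cells are exposed to compounds with […] for 30 min at 37C in DPBS containing Ca/Mg, BSA and Tween 20.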
# Menin-MLL FL inh: menin-MLL binding inhibition, fluorescein peptide; Fluorescence polarization, fluorescein-MLL peptide displacement from menin; FP activity change, % at 61.4 µM; 290,000 tested, under 10 active; AID 1766; inconclusive = falling polarisation curve, or a change in total fluorescence; inactive = total fluorescence flat and polarisation flat or rising; no compound was filed as active; the % refers to the polarisation; negative = inhibition;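 note: % of control where 0% means no effect; inhibitors lower the polarisation; unlabelled MLL peptide was the positive control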
# TRPV1 PAM: human TRPV1 potentiation; Q8NER1; TRPV1-expressing cells, Fluo-8 calcium influx, capsaicin EC20 potentiation; host cell line not named in the record; control for the full effect not named in the record; potentiation, % at 8.33 µM; 320,000 compounds, 0.02% hits; active means potentiation above 80%; inconclusive means 30% to 80%; inactive means below 30%; note: 0% is about no effect
#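 Cells expressing TRPV1 were dye-loaded with Fluo-8 and read kinetically: 10 s baseline, 3 min after compound (agonist portion), then 2 min after EC20 capsaicin (allosteric enhancer portion). Calcium-bound dye fluorescence at 480/520 nm.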
# Sfp PPTase inh: blocks B. subtilis Sfp PPTase activity | Potency, µM, for the others: max response, negative = inhibition, usual class: inhibitors | AID 1490 | Biochemical Sfp PPTase activity, qHTS | 310,000 compounds, 3.5% hits | Q9F4F7; active = well fitted inhibition curve with a large enough effect; inconclusive = small, poorly fitted or top-dose-only effect, or another doubt; inactive = no such curve, though single readings can be large or run the other way;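 note: the enzyme is Sfp with the accession as filed and its product quenches rhodamine fluorescence; potency is the fitted concentration of half-maximal effect; 0% = enzyme reaction without inhibitor and -100% = no enzyme wells; top concentration of the series not given in the record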
#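 Reaction rates are the 30-min fluorescence difference (ex 525, em 598 nm) in wells containing 15 nM Sfp, 5 uM rhodamine-CoA and 12.5 uM BHQ-2-YbbR at pH 7.6 with 10 mM MgCl2.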
# gsp agonist: agonists of gsp mutant (McCune-Albright syndrome); AID 624287; Potency, µM (titrated, usually from 76.9 µM), for the others: at the top dose activation (cAMP increase), hits mostly activators; 340,000 compounds, 0.13% hits; gsp mutant cells, cAMP HTRF, 30 min; control for the full effect not named in the record; active = well fitted activation curve with a large enough effect; inconclusive = small, poorly fitted or top-dose-only effect, or another doubt; inactive = no such curve, though single readings can be large or run the other way; cell line not stated here;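 note: phosphodiesterase inhibitor Ro 20-1724 added with compounds to block cAMP breakdown; potency is the fitted concentration of half-maximal effect; nearly all actives have a fitted effect of over 60% in size; about a fifth of the inactives were tested at one dose only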
#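 Cells in DMEM/10% FBS with G418 were pretreated with compounds in DMSO plus […] (300 uM stock) for 30 min at 37C. cAMP was measured by HTRF (cAMP-d2 plus anti-cAMP antibody-K) after 30 min at room temperature.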
# ClpP mod: qHTS Assay for Activators of ClpP | purified B. subtilis ClpP, FRET peptide cleavage, 20 min | Potency, µM (top dose mostly 57.5 µM), for inactives: top-dose activity change, negative = active | 340,000 compounds, 1.9% hits | AID 651965, 2013; active = well fitted falling curve with a large enough effect; inconclusive = small, poorly fitted or top-dose-only effect; inactive = no such curve, though single readings can be large or run the other way; note: potency is the fitted concentration of half-maximal effect; the source files actives as falling curves though it sought activators and does not explain the sign; nearly all actives have a fitted effect of over 65% in size; many hits overshoot -100%
# Target sequence (P80244 whole entry, looked up): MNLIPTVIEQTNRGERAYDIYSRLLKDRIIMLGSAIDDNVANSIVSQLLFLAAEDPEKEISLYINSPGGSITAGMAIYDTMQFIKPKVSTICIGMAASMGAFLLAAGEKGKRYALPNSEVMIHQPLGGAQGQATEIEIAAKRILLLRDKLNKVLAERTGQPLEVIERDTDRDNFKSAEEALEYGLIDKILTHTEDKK
#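 FRET quenching reversal measured ClpP activation: 10 microg/mL B. subtilis ClpP at pH 8 with the FRET-FV decapeptide, read at 430 nm after 320 nm excitation. The 20-min minus 0-min signal was scaled between DMSO/no-enzyme wells and ADEP (5.8 microM final).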
# D2 potentiator: potentiates the human D2 dopamine receptor allosterically; P14416; DiscoveRx D2 beta-arrestin cells, luminescence, 90 min; 100% = 57 uM dopamine signal; potentiation, % (no concentration beside the values); 360,000 compounds, 0.23% hits; AID 624464; active = potentiation of 50% or more; inconclusive = 30% to 50%; inactive = 30% or less;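 note: compound concentration not given in the record; tested on top of an EC20 dose of dopamine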
# Target sequence (P14416 whole entry, looked up): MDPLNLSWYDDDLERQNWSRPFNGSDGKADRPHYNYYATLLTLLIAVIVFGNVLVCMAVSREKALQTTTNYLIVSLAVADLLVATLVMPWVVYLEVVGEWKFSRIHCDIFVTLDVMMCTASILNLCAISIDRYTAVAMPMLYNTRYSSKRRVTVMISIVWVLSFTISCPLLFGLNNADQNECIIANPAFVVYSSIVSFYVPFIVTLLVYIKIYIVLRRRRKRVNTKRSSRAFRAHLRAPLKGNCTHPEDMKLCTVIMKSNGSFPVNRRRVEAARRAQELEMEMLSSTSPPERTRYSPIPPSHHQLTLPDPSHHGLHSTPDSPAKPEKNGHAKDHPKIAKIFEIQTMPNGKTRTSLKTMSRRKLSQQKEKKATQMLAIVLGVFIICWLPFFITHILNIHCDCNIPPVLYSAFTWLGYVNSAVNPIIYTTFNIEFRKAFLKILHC
#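 D2 cells co-treated with compound plus 50 nM dopamine (EC20) for 90 min at 37 deg C to detect potentiation. Beta-arrestin recruitment was read as enzyme-fragment luminescence after 1 h at ambient temperature. Full response was set by 57 uM dopamine.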
# Starred values were filed as active, the others as inactive; u = inconclusive; x = not tested or not shown; & = joins results of further samples; [ ] = remark or other dose.
nr	Structure	gsp antag	Menin-MLL FL inh	TRPV1 PAM	Sfp PPTase inh	gsp agonist	ClpP mod	D2 potentiator
1	C[C@H](CO)N1C[C@H](C)[C@@H](CN(C)S(=O)(=O)c2cccs2)Oc2c(NC(=O)Nc3ccccc3)cccc2C1=O	-19.9%	x	x	x	2.6%	0.2%	3.5
2	Cc1ccc(-n2c(=O)c3c(c4cc(C)ccc4n3C)n(CC(=O)NCC3CCCO3)c2=O)cc1 (stereo not given)	x	x	x	x	-3.8%	4.2%&4.8%	-0.9
3	CCCN(CC(=O)Nc1ccccc1C)C(=O)C1CC(=O)N(c2cccc(C)c2C)C1 (stereo not given)	9.0%	x	20.2	x	24.9%[15.4 µM]	x	-14.7
4	OCCNc1ncnc2c1sc1nc(N3CCOCC3)c3c(c12)CCC3	7.2%	6.6	6.7	-0.6%	-16.7%[15.4 µM]	2.1%	-1.3
5	O=C(NC(=S)NC1CCSC1=O)c1cccc([N+](=O)[O-])c1 (stereo not given)	4.2%	x	-1.4	2.6%	-34.6%[inhibitor]	0.1%	2.4
6	CCOC(=O)CCNC(=O)Nc1ccc2nc(C)n(Cc3cccc(Cl)c3)c(=O)c2c1	-8.6%	4.5	4.8	8.1%	-4.1%	-24.2%	7.2
7	NC(=O)c1c(NC(=S)Nc2ccc(F)cc2)sc2c1CCCC2	4.1%	-0.4	7.3	22.4µM*	-2.4%[15.4 µM]	x	-4.2
8	Cc1nn(-c2ccc(F)cc2)c(C)c1CN1CCN(CCc2ccccc2)C(CCO)C1 (stereo not given)	4.2%	-4.1	2.3	5.6%	7.6%	-0.3%	-19.4
9	O=C(C1CCCC1)N1CCC(CC2CC(c3cccc(Br)c3)=NO2)(C(=O)NCC2CCCCC2)CC1 (stereo not given)	-16.9%	-5.5	-7.3	2.9%	-27.9%	-0.1%	-18.0
10	CC1CCc2c(nc3ncnn3c2N2CCN(c3ccccc3)CC2)C1 (stereo not given)	-8.7%	3.4	-4.8	0.6%	u	1.7%	-2.0
11	COc1ccccc1C(=O)Nc1cc2ccccc2oc1=O	5.4%	3.1	1.0	1.0%	-7.4%	-22.1%	-21.2
12	O=C1c2ccccc2S(=O)(=O)N1Cc1c(F)cccc1Cl	-3.1%	0.0	6.6	-4.6%	2.9%	x	1.7
13	CCn1c(=O)c(C(=O)CN2CCN(S(=O)(=O)c3cc(C)ccc3C)CC2)c(N)n(Cc2ccccc2)c1=O	u	5.6	1.3	4.7%	-19.0%	1.2%	-8.3
14	CC(C)CN1C(=O)C(=O)N(CC(=O)NCc2ccc3c(c2)OCO3)C1=O	-0.7%	-0.9	4.0	11.7%	-24.1%	-2.4%	0.6
15	CCCN1CCN(CCCNC(=O)C2CCN(c3nnc(-n4c(C)ccc4C)s3)CC2)CC1	14.7%	-0.2	-0.7	9.5%	-2.3%	x	-9.1
16	O=C(CNC(=O)c1sc2ccccc2c1Cl)NCc1cccnc1	-2.6%	x	-2.0	2.9%	0.9%	-3.1%	-30.2
17	Cc1cccc(-n2cnc3cc(C(=O)N4CCCCC4)ccc32)c1	-1.0%	0.3	-1.7	7.0%	-5.2%	-6.8%	7.0
18	CC(C)Cc1ccc(C(C)/C=C2/CCC(CN3CCCCC3)C2=O)cc1 (stereo not given)	6.8%	x	x	x	18.6%	-1.3%	-20.9
19	O=C(COc1ccccc1F)NNC(=O)c1cccc(-n2cccc2)c1	-5.3%	x	28.8	6.7%	28.7%	1.1%	-9.3
20	O=C(CN1C(=O)NC2(CCCc3ccccc32)C1=O)NCCc1ccc(F)cc1 (stereo not given)	7.3%	x	x	x	-3.0%	x	3.3
21	CCOC(=O)CN(C(=O)CSc1nnc(CNc2ccc(F)cc2)n1CC)c1ccc(F)cc1	0.3%	5.8	10.8	12.1%	-11.5%	-8.0%	4.3
22	Cc1ccc(-n2nc(C)c(NC(=O)COC(=O)c3ccccc3NCCO)c2C)cc1	-7.2%	x	29.4	x	14.8%	28.2µM*	-17.1
23	Cn1cc(CN2CC3C[C@@H]4CC2C[C@H](C3)C4)c(-c2ccc3c(c2)OCCO3)n1	x	-4.1	u	-17.6%	-10.4%[15.4 µM]	x	-26.5
24	O=C(CSc1n[nH]c(-c2ccccc2)n1)Nc1ccc(F)cc1F	-6.4%	x	21.0	7.8%	-1.3%	-7.1%	-19.1
25	COc1ccc(S(=O)(=O)NC(C)C(=O)N2CCCC2)cc1C (stereo not given)	1.2%	-0.3	-0.8	2.0%	-65.0%[inhibitor]	x	-4.7
26	COc1ccc(CNC(=O)C2CCC(CNc3c(N4CCOCC4)c(=O)c3=O)CC2)cc1 (stereo not given)	-9.1%&-5.5%	1.0	u	7.2%	u	-0.1%	-4.5&4.2
27	COc1cccc(CNC(=O)Cn2ccc3cc(S(=O)(=O)N4CCCCCC4)ccc32)c1	-10.3%	1.2	-9.3	21.2%	9.9%	-5.4%	0.1
28	CCN(CC)CCNC(=O)C(=O)NCC1OCCN1S(=O)(=O)c1ccc([N+](=O)[O-])cc1 (stereo not given)	-1.6%	4.8	-4.2	17.2%	18.1%	-2.3%	50.2*
29	S=C(Nc1ccccc1Cl)NC1CCCCCC1	3.6%	2.2	-20.1	15.3%	-14.5%	-2.1%	-11.7
30	O=C(CSc1ncnc2c1oc1ccccc12)Nc1ccccc1C(F)(F)F	24.8%	-2.3	-7.7	-12.9%	31.6µM*	-3.8%	-3.0
31	COC(=O)c1c(CSc2ccc(Cl)cc2)noc1C(=O)NCc1ccco1	-21.9%	4.3	-3.8	6.6%	-72.6%[inhibitor]	0.9%	-12.4
32	O=S(=O)(c1ccc(NCC2CCCCC2)nc1)N1CCOCC1	20.0%	-2.8	-13.9	6.6%	22.9%	u	-9.5
33	c1cncc(Nc2nc(-c3cccnc3)cs2)c1	7.5%	5.0	-5.8	-6.5%	18.4%	-0.4%	1.2
34	CCC1CCCCN1C(=O)COC(=O)c1cc(=O)[nH]c2ccccc12 (stereo not given)	8.3%	x	x	x	-13.3%	-2.2%	-0.7
35	COc1cc(OC)cc(-c2cc3nc(C)cc(N4CCN(C(=O)c5ccco5)CC4)n3n2)c1	x	2.7	-11.8	u	x	x	x
36	COc1cc(NC(=O)COc2cc(O)c3c(c2)OC(C)(C)CC3=O)cc(OC)c1OC	35.5µM*	-1.2	8.3	17.9%	x	-0.9%	-49.9
37	CC1CCc2c(sc(NC(=O)Cn3nc(C(F)(F)F)c4c3CCCCC4)c2C#N)C1 (stereo not given)	6.5%	-2.4	0.2	50.1µM*	-2.8%	-16.5%	-16.9
38	Cc1ccc2c(c1)c1c(n2CC(O)Cn2ccnc2C)C(=O)CCC1 (stereo not given)	6.8%	0.7	0.1	22.1%	-3.3%	-28.8%	-3.6
39	CC(C)c1ccc(OCC(=O)Nc2cccc3c2CCCC3)cc1	-8.5%	0.9	1.3	16.1%	-3.0%	0.2%	-6.3
40	O=C(CSc1nnc(-c2ccc(F)cc2)o1)Nc1ccccc1N1CCOCC1	-7.2%	x	x	x	1.2%	0.2%	-3.4
41	Cc1n[nH]c(=S)n1/N=C/c1ccc(Br)o1	-5.0%	1.5	-0.9	-1.2%	u	0.4%	-4.6
42	Cc1ccccc1CCN(C(=O)c1csnn1)C(C(=O)NC1CCCC1)c1ccncc1 (stereo not given)	2.9%	1.0	-13.4	14.6%	-5.4%	x	-3.2
43	CC(=O)c1c(C(C)=O)c(C)n(-c2cccc([N+](=O)[O-])c2)c1C	6.2%	8.5	3.4	16.5%	1.6%	-22.0%	10.0
44	O=C(O)CCC(=O)Nc1ccccc1Oc1ccccc1	x	-0.5	14.3	9.5%	-1.6%[15.4 µM]	x	-7.7
45	CCC(C)CCN1CCN=C1Nc1ccccc1 (stereo not given)	3.6%	x	-1.1	x	5.4%	0.2%	-17.6
46	CCOC(=O)Cc1csc(NC(=O)c2c(O)c3ccccc3n(C)c2=O)n1	x	-0.7	-4.5	13.9%	x	x	x
47	CC(C)[C@H](NC(=O)NC1CCN(Cc2ccccc2)CC1)C(=O)O	6.6%	1.1	-2.7	10.4%	23.3%[15.4 µM]	x	2.3
48	NS(=O)(=O)c1ccc(CCNC(=O)COC(=O)Cc2c(F)cccc2Cl)cc1	-6.3%	x	0.7	10.3%	19.5%[15.4 µM]	-13.3%	-5.5
49	Cc1ccc(S(=O)(=O)N2CCN(Cc3csc(C)n3)CC2)cc1	-4.5%	x	-28.9	9.5%	-37.8%[inhibitor]	-3.9%	4.3
50	COc1ccc(N(C(=O)c2cccnc2)S(=O)(=O)c2ccc(OC)c(OC)c2)cc1	-6.8%	-2.2	-3.9	3.0%	-10.8%	-0.2%	0.9
51	Cc1c(NC(=S)NC(=O)c2cccc([N+](=O)[O-])c2)c(=O)n(-c2ccccc2)n1C	-2.4%	x	3.6	-10.1%	-0.3%	-3.0%	-7.8
52	Cc1ccc(OCCn2cc(/C=C(\C#N)C(=O)NCC3CCCO3)c3ccccc32)cc1C (stereo not given)	5.3%	1.4	2.6	5.5%	4.0%	-1.2%	-5.6
53	Cc1ccc(F)cc1NCC(=O)Nc1ccc(Cl)cc1F	10.3%	3.6	7.4	4.1%	-27.6%	0.3%	-8.2
54	CSc1nc(N)nc(-c2cccs2)c1C#N	-5.1%	8.6	-8.6	20.4%	-11.8%	-5.0%	-16.3
55	O=C(CSc1nc2ccccc2[nH]1)N1CCCCC1	10.9%	4.8	0.5	3.7%	-46.7%[inhibitor]	1.0%	-10.9
56	COc1ccc(NC(=O)Cn2c(=O)n(CC(=O)NCc3ccco3)c(=O)c3ccccc32)cc1	3.9%	1.8	x	-2.7%	0.0%	-4.6%	10.8
57	COc1ccccc1CNC(=O)CSc1ncc(C(=O)Nc2ccccc2)c(=O)n1C	-18.7%	x	-2.8	x	6.7%[15.4 µM]	0.3%	-20.2
58	O=S(=O)(NCc1ccc(F)cc1)c1cc(Br)ccc1Br	-13.6%	x	1.7	x	-5.8%	-0.5%&-0.6%	-3.0

# Bioassay records as filed in PubChem.
